Mtb H37Rv: Confirmatory growth inhibition assay against Mycobacterium tuberculosis H37Rv, potency (AID 1949) | most inactive calls were filed without a number and no value below 0 was filed | inhibition, % at 10 µg/mL; hits with a dose series show IC50 in µg/mL | hit rate 1.6% among 100,000;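 active means confirmed in a dose series; inconclusive means about 50% or more but not retested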;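 further: bacteria grown 7 days with compound before Alamar blue readout; 0% = untreated bacteria and 100% = reference antibiotic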
* marks the source's active call; other numbers are inactive results; i = inactive; ? = inconclusive.

canonical_smiles	Mtb H37Rv
S=c1[nH]nc2nc3[nH]c4ccccc4c3nn12	12.4%
Cc1c(Cl)cccc1NC(=O)c1ccccc1OCC(=O)NC12CC3CC(CC(C3)C1)C2	16.1%
Cc1cnn(CCCNC(=O)NC23CC4CC(CC(C4)C2)C3)c1	0.5%
O=C(NCCN1CCOC1=O)c1ccc([N+](=O)[O-])cc1	i
CCc1c(C)sc(NC(=S)N2CCN(C(=O)C3CCCO3)CC2)c1C(=O)OC (stereo not given)	i
Cc1cc(C)cc(OCCNC(=O)c2ccc(C(C)(C)C)cc2)c1	20.5%
COc1ccc(-c2nc3ccccc3c(=O)n2-c2ccc(C)c(C)c2)cc1	i
Cc1ccc(Cl)cc1N(CC(=O)Nc1ccc2c(c1)OCCO2)S(C)(=O)=O	i
O=[N+]([O-])c1cccc(C2Oc3ccccc3C3CC(c4ccc(F)cc4)=NN32)c1 (stereo not given)	0.5%
CCOc1ccc(NC(=S)NCC23CC4CC(CC(C4)C2)C3)cc1	i
O=C1N(Cc2cccc3ccccc23)c2ccc(Cl)cc2C1(O)c1c[nH]c2ccccc12 (stereo not given)	36.0%
Cc1ccc(-c2n[nH]c(=S)n2N=Cc2cccc(F)c2)cc1	4.4%
COc1ccc(NC(=O)c2ccc(C(=O)Nc3ccc(OC)cc3OC)cc2)c(OC)c1	i
CCOC(=O)Cc1cc(=O)[nH]c(/N=C(\NC(=O)c2ccccc2)Nc2ccccc2C(F)(F)F)n1	0.5%
CC(C)C(=O)N1c2ccccc2C(Nc2ccccc2)CC1C (stereo not given)	0.9%
CCn1c(CNC(=O)c2ccc(OC)cc2)nnc1SCC(=O)Nc1cc(Cl)c(Cl)cc1Cl	i
CC(=O)NC(=S)Nc1cccc2c(C)cc(C)nc12	i
COC(=O)CC1C(=O)NCCN1C(=S)NC(=O)CCCOc1ccc(Cl)cc1Cl (stereo not given)	i
CCOC(=O)C1CCCN(C(=S)Nc2cc(OC)c(Cl)cc2OC)C1 (stereo not given)	0.3%
COc1ccccc1C(=O)Nc1ccc(C2(C#N)CCCC2)cc1	6.6%

Next results.
canonical_smiles	Mtb H37Rv
COc1ccc(NC(=O)C2C3CCC(C3)C2C(=O)O)c(OC)c1 (stereo not given)	i
C=CCn1c(SCC(=O)Nc2c(Cl)cc(Cl)cc2Cl)nnc1-c1ccccc1	i
CCOc1ccc(N2C(=O)CC(N3CCN(c4ccc(C(C)=O)cc4)CC3)C2=O)cc1 (stereo not given)	i
COc1ccc(C(=O)C(C)Oc2cccc(NC(=O)c3ccccc3[N+](=O)[O-])c2)cc1 (stereo not given)	i
CCCCNCCOc1ccc(Cl)cc1Br	0.1%
COCCNC(=O)Cn1cc(C(=O)c2ccccc2)c2ccccc21	i
CSc1ccccc1NC(=O)CCc1ccccc1	i
O=C(Nc1ccc(N2CCN(C(=O)c3ccc(Cl)cc3)CC2)cc1)c1ccc(Cl)cc1	i
Cc1ccc(N(Cc2ccc(C(=O)Nc3ccc(CC#N)cc3)cc2)S(C)(=O)=O)cc1C	i
CCCCN(CCCC)C(=O)Cc1ccc(Br)cc1	2.8%
CC(=O)c1cccc(NC(=O)Nc2ccc(C(=O)N3CCOCC3)cc2)c1	i
CCOC(=O)c1ccc(NC(=S)NCCOC23CC4CC(CC(C4)C2)C3)cc1	i
O=C1c2ccccc2C(=O)N1Cc1ccccc1	i
O=C(O)C1CC=CCC1C(=O)Nc1ccc(C(=O)N2CCCCC2)cc1 (stereo not given)	i
COc1ccc(Br)cc1C(=O)Nc1ccc(N2CCN(C)CC2)cc1	12.6µg/mL*
CNc1c([N+](=O)[O-])cnc2c1c(=N)nc1ccccn12	i
COc1cccc(C2NC(=O)NC(C)=C2C(=O)Nc2ccc(C)cc2)c1OC (stereo not given)	1.5%
O=C(COc1ccc(C(=S)N2CCC(Cc3ccccc3)CC2)cc1)N1CCCC1	i
N#CC1=C(N)N(c2ccc(Cl)cc2Cl)C2=C(C(=O)CCC2)C1c1ccc(Br)s1 (stereo not given)	?
Cc1ccc(NC(=O)CNC(=O)c2cccc(C)c2)cc1	2.4%

Next structures.
canonical_smiles	Mtb H37Rv
CCCCOc1ccc(C2c3c(oc4ccc(Br)cc4c3=O)C(=O)N2CCCN2CCOCC2)cc1 (stereo not given)	3.77µg/mL*
CCSc1nc(C)c2cc(OC)ccc2n1	0.7%
Cc1cc(C)c(S(=O)(=O)N(CC(=O)N2CCC(C(N)=O)CC2)Cc2ccccc2)c(C)c1	i
CN(Cc1ccccc1)c1nc(-c2ccccc2)cs1	3.3%
CC(=O)c1ccc(C(C)(C)C)cc1NC(=O)c1cccs1	i
CC1(C)NC(=O)N(CC(=O)Nc2ccc(Br)cc2)C1=O	i
COC(=O)c1ccccc1NC(=O)NN1CCN(C)CC1	i
COc1ccccc1-c1c(C(F)(F)F)oc2cc(OC(=O)c3cccc(F)c3)ccc2c1=O	i
Cc1cccc(OCC(=O)Nc2ccc3c(c2)nc(CN2CCCCC2)n3C)c1	i
CCOc1cc(C)ccc1OCc1nnc(SCC(=O)N2CCN(c3ccccc3)CC2)n1C	i
CCOC(=O)C1=CN(Cc2ccc(F)cc2)C=C(C(=O)OCC)C1c1cc(OC)ccc1OC	2.9%
CCOCCCNC(=O)COc1ccc(Cl)cc1	i
O=C(CN(c1cccc(Cl)c1)S(=O)(=O)c1ccccc1)Nc1ccccn1	i
CCC(C)NC(=O)c1ccccc1NC(=O)c1cccc([N+](=O)[O-])c1 (stereo not given)	i
O=C(c1cc(-c2ccc(Cl)cc2Cl)on1)N1CCOCC1	i
O=c1c2c(nc3nc(NCc4cccs4)[nH]n13)CCC2	i
Cc1cc(C(F)(F)F)nc(Nc2nc(C)c3ccccc3n2)n1	i
CCc1ccc(C(=O)NC(C(=O)NCCC(C)C)C(C)C)cc1 (stereo not given)	i
COc1cccc2cc(C(=O)NCCc3ccc(Cl)cc3)c(=O)oc12	i
COc1ccc([N+](=O)[O-])cc1NC(=S)NC(=O)c1ccccc1	6.5%

The listing continues.
canonical_smiles	Mtb H37Rv
Cc1ccc(S(=O)(=O)N2C(=O)CCC2C(=O)NCCOc2ccc(Cl)cc2)cc1 (stereo not given)	i
Cc1ccc(OCC(=O)Nc2cccc(C(=O)O)c2C)cc1	i
CCCCn1c(SCC(=O)O)nc2ccccc21	i
CCC(C)(C)NC(=O)c1ccc(Cl)c(Cl)c1	i
Cc1c(/C(O)=C2\C(=O)C(=O)N(Cc3cccnc3)C2c2ccncc2)cnn1-c1ccccc1 (stereo not given)	i
Oc1ccc(Br)c2cccnc12	<0.1µg/mL*
O=C(Cn1nnc(-c2ccccc2F)n1)Nc1ccccc1F	i
O=C1CCCC2=C1C(c1cccs1)Nc1ccccc1N2 (stereo not given)	i
O=C(Nc1cccc(Cl)c1)NC(CO)(CO)CO	i
COC(=O)c1ccc(NC(=S)NCc2cccnc2)cc1	i
CC(C)C(=O)Nc1ccc(NC(=S)NC(=O)c2cccc(F)c2)cc1	i
COc1ccc(Cl)cc1Nc1nc(C)cc(C)c1C#N	i
O=S(=O)(c1ccc(F)cc1)N1CCN(Cc2ccncc2)CC1	i
CS(=O)(=O)NC1c2cccc3cccc(c23)C1Nc1ccc(Br)cc1 (stereo not given)	30.3%
Cc1ccc(NC(=O)c2cnn(-c3ccccc3)c2NC(=O)c2ccccc2F)cc1C	i
CCc1c(C)sc(NC(=O)c2ccc(Cl)c(Cl)c2)c1C(N)=O	i
O=C(NC1CCCCC1)C(=S)NCCc1ccccc1	i
O=C(NCCN1CCOCC1)C1COc2ccccc2O1 (stereo not given)	0.3%
CNC(=O)c1cc2c(s1)CCCCCC2	i
CCCCc1cc(=O)oc2cc(OCC(=O)c3ccc(Cl)cc3)ccc12	i

Random excerpt: 4 records from the list
canonical_smiles	Mtb H37Rv
Cc1c(/C(O)=C2\C(=O)C(=O)N(Cc3cccnc3)C2c2ccncc2)cnn1-c1ccccc1 (stereo not given)	i
Cc1ccc(NC(=O)c2cnn(-c3ccccc3)c2NC(=O)c2ccccc2F)cc1C	i
CC(C)C(=O)Nc1ccc(NC(=S)NC(=O)c2cccc(F)c2)cc1	i
O=C(Cn1nnc(-c2ccccc2F)n1)Nc1ccccc1F	i

Other compounds.
canonical_smiles	Mtb H37Rv
O=C(NC1CCCC1)c1cc(Br)ccc1Cl	i
O=C1CN(c2ccc(Br)cc2)C(=O)N1CC(=O)N1CCCc2ccccc21	i
O=C(Nc1ccc(Cl)cc1)N1CCCc2ccccc21	i
O=C(C(c1ccccc1)c1ccccc1)N1CCCc2ccccc21	i
COc1ccc(C2C(C(=O)c3cccs3)=C(O)C(=O)N2c2nc3ccc(F)cc3s2)cc1OC (stereo not given)	i
O=C(NC1CCCCC1)c1cc(NCc2cccnc2)nc2ccccc12	i
CCCCNCCOCCOc1c(C)cc(C)cc1C	32.6%
Cc1onc(-c2ccccc2Cl)c1C(=O)NCc1ccccc1F	i
O=C(NCc1ccc(N2CCCC2=O)cc1)Nc1cccc(Cl)c1	0.4%
COc1ccc(Cl)cc1NC(=O)C12CCC(C)(C(=O)O1)C2(C)C (stereo not given)	0.3%
Clc1ccccc1CSc1nnc2c3ccccc3nc(-c3ccccc3)n12	i
CS(=O)(=O)N(CCc1ccccc1)CC(=O)N1CCCCC1	i
CCN(CC)c1ccc(NC(=O)CSc2nnnn2-c2ccccc2)cc1C	i
Cc1ccc2c(c1)C(=O)C(=O)N2Cc1ccccc1OCc1ccccc1	0.6%
O=S(=O)(/N=C(/Nc1ccc(Cl)cc1Cl)c1ccccc1)c1cccs1	i
COc1cc(NC(=O)C(c2ccccc2)c2ccccc2)c(Cl)cc1NC(=O)c1ccccc1	i
Cc1ccc(S(=O)(=O)c2nc(S(=O)(=O)Cc3ccccc3)sc2N2CCC(C)CC2)cc1	9.0%
Nn1c(SCC(=O)Nc2ccc(F)cc2F)nnc1-c1ccccn1	0.2%
Cc1ccc(N2CC(O)=C(c3nc4ccccc4s3)C2=N)c(C)c1	i
Cc1cc(NC(=O)COc2cc(C)c(Cl)c(C)c2)c(C)cc1I	i

Further structures:
canonical_smiles	Mtb H37Rv
CN(Cc1ccccc1)S(=O)(=O)c1ccc(OCC(=O)NCC2CCCO2)cc1 (stereo not given)	i
CC(=O)c1cccc(NC(=O)c2c(F)c(F)c(F)c(F)c2F)c1	35.7%
O=C(N1CCOCC1)N1CCCN(C(=O)N2CCOCC2)CC1	i
O=C(Nc1ccccc1Cl)c1ncn[nH]1	i
O=C(CSCc1c(F)cccc1Cl)NNC(=S)NC1CCCCC1	i
CN1CCN(C(=O)c2cnn(-c3ccccc3)c2NC(=O)c2ccc(F)cc2)CC1	i
CCOC(=O)c1ccc(N2C(=O)C(Oc3ccccc3)C2c2ccc(C(=O)OC)cc2)cc1 (stereo not given)	i
COc1cc(OC)cc(C(=O)N2CCC(C(=O)Nc3cccc(C(F)(F)F)c3)CC2)c1	i
COc1cc(CO)cc(I)c1OCc1cccc(C(=O)O)c1	i
COc1ccccc1CC(=O)Nc1c(C)cc(C)cc1C	i
Cc1ccc(-c2nc3cc(Cl)cc(Cl)c3o2)cc1NC(=O)c1cccs1	i
COC(=O)c1ccc(NC(=O)C2COc3ccccc3O2)cc1 (stereo not given)	29.7%
CCCC(=O)Nc1ccccc1NC(=O)COc1ccc(Cl)c(C)c1	0.7%
Cc1noc(NS(=O)(=O)c2ccc(NC(=O)CSc3nc4ccccc4[nH]3)cc2)c1C	i
O=C(c1ccc(-c2nnc(-c3ccccc3)o2)cc1)n1nnc2ccccc21	i
O=C(c1cccs1)N1CCN(C(=O)N2CCCCCC2)CC1	i
Cc1c(-c2ccccc2)nc2ccccc2c1C(=O)NCc1ccc2c(c1)OCO2	i
COc1ccc(S(=O)(=O)N2CCN(C(=O)c3cc(OC)cc(OC)c3)CC2)cc1	2.2%
CCCCOc1ccc(N2CC(C(=O)Nc3c(C)cccc3CC)CC2=O)cc1 (stereo not given)	1.7%
Cc1cc(=O)oc2ccc(OC(=O)c3ccc(F)cc3)cc12	i

A draw from above in order of molar mass, high to low.
canonical_smiles	Mtb H37Rv
COc1cc(OC)cc(C(=O)N2CCC(C(=O)Nc3cccc(C(F)(F)F)c3)CC2)c1	i
COc1cc(CO)cc(I)c1OCc1cccc(C(=O)O)c1	i
Cc1cccc(OCC(=O)Nc2ccc3c(c2)nc(CN2CCCCC2)n3C)c1	i

Continued.
canonical_smiles	Mtb H37Rv
S=C(Nc1ccc2c(c1)OCCO2)Nc1cccc(Cl)c1Cl	i
Nc1c(C(=O)N2CCc3ccccc3C2)sc2nc3c(c(C(F)(F)F)c12)CCCCC3	i
CC1(C)C(=N)N(c2ccccc2)C(=O)N1c1ccccc1	i
COCCNC(=O)C(C#N)c1ccccc1 (stereo not given)	i
CCOC(=O)c1cc(-c2ccccc2)sc1NC(=S)Nc1ccc(Br)cn1	i
COC(=O)c1c(NC(=S)NC(=O)c2c(Br)c(C)nn2C)sc2c1CCCCCC2	i
N#C/C(=C\c1ccc(O)c(Cl)c1)c1ccccc1	5.6%
CCOc1ccc(C(=O)Nc2ccc3ccccc3c2)cc1OCC	5.9%
CS(=O)(=O)N(CC(=O)Nc1ccc(Br)c(Cl)c1)c1cc(Cl)ccc1Cl	2.3%
COc1ccc(NC(=O)COc2ccccc2C(C)(C)C)cc1Cl	i
CCCC1Cc2nc(N3CCCCC3)c(C#N)cc2CO1 (stereo not given)	10.9%
CN(C)C(=O)CSc1nnc(NC(=O)c2ccccc2Br)s1	i
Cc1nnc(NC(=O)CN(C)S(=O)(=O)c2ccc(Br)cc2)s1	i
COCCn1c(CC(C)(C)C)nc2ccccc21	i
Cc1cc(Cl)ccc1NC(=S)NCc1ccc2c(c1)OCO2	i
Cc1cc2ccccc2n2c(SCC(=O)Nc3ccc4c(c3)OCCO4)nnc12	i

Not all compounds are listed (hit frequency here may not be typical).
